High-throughput results: PubChem BioAssay, National Center for Advancing Translational Sciences (NCATS)
VACV Venus inh = vaccinia inhibition (Venus reporter); Vaccinia virus Venus reporter expression, fluorescence; 330,000 compounds, 0.46% hits; Potency, µM (titrated, usually from 36.5 µM), for the others: at the top dose activity change, negative = inhibition, usual class: inhibitors; active means well fitted inhibition curve with a large enough effect; inconclusive means small, poorly fitted or top-dose-only effect; inactive means no such curve, though single readings can be large or run the other way; tested in A549 cells; note: nearly all actives have a fitted effect of over 30% in size; inactives centre near -10
Vaccinia mCherry = vaccinia inhibition (mCherry reporter). Vaccinia virus mCherry reporter infection, fluorescence; about a quarter of the inactives have no number. Potency, µM (titrated, usually from 36.5 µM), for the others: at the highest dose activity change, negative = inhibition, most hits filed as inhibitors. 310,000 compounds, 0.63% hits; active = well fitted inhibition curve with a large enough effect; inconclusive = small, poorly fitted or top-dose-only effect; inactive = no such curve, though single readings can be large or run the other way; tested in A549 cells; note: nearly all actives have a fitted effect of over 35% in size; inactives centre near -10
Numbers without * were called inactive; i = inactive; ? = inconclusive; / = not tested or not shown; [ ] = another dose, or the depositor's remark. % is set by controls: 0 for no effect and ±100 for the full control effect; potency is the fitted concentration of half-maximal effect. Compounds as they come (roughly 0.87% active in at least one column).

SMILES	VACV Venus inh	Vaccinia mCherry
Cc1csc(NC(=O)c2nc3nccc(C)n3n2)n1	-3%	-17%
Cc1c(NC(=O)C(C)OC(=O)c2cc(Cl)nc(Cl)c2)c(=O)n(-c2ccccc2)n1C (configuration not stated)	-11%	-10%
O=C(NCc1cccc(C(F)(F)F)c1)c1ccc(=O)[nH]c1	-12%	i
C=CCc1c(C)nc2nc(SCC(=O)Nc3ccc(OCC)cc3)nn2c1C	-6%	-12%
CCOC(=O)c1c(C)n(C)c2cc(-c3ccc(F)cc3)c(O)cc12	-15%	-23%
CC1CN(S(=O)(=O)c2ccc(C(=O)NCCCn3ccnc3)cc2)CC(C)O1 (configuration not stated)	3%	i
FCCCOc1ccc(CN2CCN(c3ccccc3F)CC2)cc1	2%	-12%
Cc1ccc2oc(=O)n(CCCOc3ccccc3C)c2c1	-5%	-16%
Cc1cc(C(F)F)n2ncc(C(=O)N3CCCCC3)c2n1	0%	-7%
Clc1cccc(CON/C=N/c2ncnc3sccc23)c1	?	/
CCN(Cc1ccccc1)S(=O)(=O)c1ccc(F)c(C(=O)Nc2cc(C(F)(F)F)ccc2Cl)c1	-8%	i
O=[N+]([O-])c1ccccc1CNC1CCCc2ccccc21 (configuration not stated)	-16%	?
Cc1ccc(Oc2ncccc2NC(=O)CCCC(=O)O)c2c1CCC2	-8%	i
O=C(CN1CCOCC1)NCCC12CC3CC(CC(C3)C1)C2	-15%	i
COc1ccc(N2CCN(C(=O)CN(Cc3ccccc3)S(C)(=O)=O)CC2)cc1	-18%	-29%
Cc1cc(N2CCC(C)CC2)nc2ccc(NC(=O)Cc3c(F)cccc3Cl)cc12	-11%	-11%
Cc1cc(NC(=O)CCC(=O)N(c2ccccc2)C(C(=O)NC2CCCC2)c2ccccc2)no1 (configuration not stated)	3%	/
CCOC(=O)[C@]12CCCC=C1N(Cc1ccc3c(c1)OCO3)C(=O)[C@H](CC(=O)N1CCOCC1)C2	-5%	-1%
CCC1=C(OC(=O)N(CC)CC)N2C(=O)OC(=NCC(=O)OC)[C@]2(C)[C@H]2C1=CC[C@H]1C(=O)NC(=O)[C@H]12	-5%	-1%
C=CC1=C(C)/C(=C/c2[nH]c(Cc3[nH]c(/C=C4\NC(=O)C(C)=C4C=C)c(C)c3CCC(=O)O)c(CCC(=O)O)c2C)NC1=O	6%	i
O=C(Nc1cccc(OC(F)(F)F)c1)C1Cc2c(-c3ccco3)ccnc2O1 (configuration not stated)	-1%	-29%
COc1cccc(CN(C(=O)c2ccccc2Cl)C2CCS(=O)(=O)C2)c1 (configuration not stated)	-13%	-14%
CC(=O)NC1=NN(C(C)=O)C(c2ccc(F)cc2)S1 (configuration not stated)	-8%	i
c1ccc2c(c1)CCCN2c1nc2ccccc2n2cnnc12	-25%	?
Cc1c(O)c(C)c2c(c1O)C(=O)C[C@@H](c1ccccc1)O2	-14%	44%[activator]
O=C(NC1CC2CCC(C1)N2C(=O)NCc1ccccc1)NC12CC3CC(CC(C3)C1)C2 (configuration not stated)	-17%	-8%
CCCOC(=O)C(C)n1cnc2sc(C)c(C)c2c1=O (configuration not stated)	-21%	-19%
COc1cccc(COc2ccccc2C2Nc3ccc(Br)cc3C(=O)N2NC(=O)c2ccncc2)c1 (configuration not stated)	-17%	?
S=c1nc2ccccc2c2nc(-c3ccccc3Cl)[nH]n12	-24%	-8%
CC(=O)c1cnc2c(C(=O)O)cnn2c1C	0%	i
Cc1nn(CC(=O)N2CCN(c3ccccc3)CC2)c(=O)c2cc3cc(F)ccc3n12	-1%	-5%
C=CCOc1cccc(C2/C(=C(\O)c3ccc4c(c3)OCCO4)C(=O)C(=O)N2Cc2cccnc2)c1 (configuration not stated)	-11%	-2%
CCOC(=O)c1ccc(NC(=O)NCCc2cnc[nH]2)cc1	0%	-15%
Cc1ccc(S(=O)(=O)N(C)C)cc1NC(=O)CSc1nnnn1-c1ccc(O)cc1	-5%	-5%
C[C@H]1COC(=O)[C@@H](CC(=O)OC(C)(C)C)C/C=C\C[C@@H](CC(=O)N(CCO)Cc2ccccc2)C(=O)N1	-12%	-21%
O=C(NC1CCCCC1)C(c1ccco1)N(C(=O)c1csnn1)C1CCCC1 (configuration not stated)	-2%	-6%
Cc1cccc(Nc2nc(-c3sc(C)nc3C)cs2)c1	?	-17%
CCOC(=O)C1CCCN(c2nc3c(S(=O)(=O)c4ccc(C)c(C)c4)nnn3c3ccc(Cl)cc23)C1 (configuration not stated)	-12%	-16%
O=S(=O)(Nc1ccc(Cl)cn1)c1cccc(S(=O)(=O)c2ccccc2)c1	-21%	-14%
CCOc1ccccc1NC(=S)N(CCC(C)C)C1CCN(C(C)=O)CC1	-7%	-8%

Continued; the last three above are carried over.
SMILES	VACV Venus inh	Vaccinia mCherry
CCOC(=O)C1CCCN(c2nc3c(S(=O)(=O)c4ccc(C)c(C)c4)nnn3c3ccc(Cl)cc23)C1 (configuration not stated)	-12%	-16%
O=S(=O)(Nc1ccc(Cl)cn1)c1cccc(S(=O)(=O)c2ccccc2)c1	-21%	-14%
CCOc1ccccc1NC(=S)N(CCC(C)C)C1CCN(C(C)=O)CC1	-7%	-8%
CC(C)COC(=O)C(C#N)c1nc2ccccc2nc1N1CCN(Cc2ccccc2)CC1 (configuration not stated)	0%	-7%
CCN(CC)C(=O)Nc1ccc(C(=O)OC)cc1	-10%	i
CN(C)CCC(=O)N1c2ccccc2Sc2ccc(Cl)cc21	-7%	?
CCSC1=NC2(CCN(C(=O)NC3CCCCC3)CC2)N=C1c1ccc(Cl)cc1	-6%	-2%
COc1cc(C=C2C(=O)OC(c3ccccc3)OC2=O)cc(Br)c1O (configuration not stated)	-5%	i
Cc1cccc(C=Nc2ccc3c(c2)oc2ccccc23)c1O	-8%	-5%
CCCOc1ccc(-c2nn(-c3ccccc3)cc2C2NC(=O)NC(C)=C2C(=O)OC)cc1 (configuration not stated)	-22%	-12%
CSc1ccccc1C(=O)N1CCN(c2cccc(Cl)c2)CC1	?	?
COc1ccc(C2C(C#N)=C(N)Oc3cc4c(cc32)OCO4)cc1 (configuration not stated)	-27%	?
N#C/C=C/C(=C\Nc1ccc(Cl)cc1)S(=O)(=O)c1ccccc1	-13%	?
Cc1cc(NC(=O)Cn2nc(C(=O)O)c3ccccc3c2=O)ccc1Br	-1%	-12%
O=C(CN1C(=O)C2C3C=CC(C3)C2C1=O)OCC(=O)c1ccc(Cl)cc1 (configuration not stated)	-6%	i
O=c1cc(N2CCN(c3ccccc3Cl)CC2)[nH]c(=O)n1Cc1ccc(F)cc1	-22%	-24%
Cc1cc(Br)ccc1NC(=O)CN(C)C(=O)CSC(=S)N1CCCC1	-21%	?
Cn1c(/N=C/c2c[nH]c3ccccc23)nc2ccccc21	-19%	i
NC(=S)N/N=C/c1cc([N+](=O)[O-])ccc1Cl	2.2µM*	?
CC(C)C1C(=O)N(Cc2cn(CCC3OCCO3)nn2)CCS(=O)(=O)N1Cc1ccc(-c2ccc(F)cc2)cc1 (configuration not stated)	-28%	i
O=C(CCc1nnc(C2(c3ccc(Cl)cc3)CCC2)o1)NCCCn1cccn1	0%	-25%
Cc1noc(C)c1NC(=O)N(C)C[C@@H]1Oc2c(NC(=O)NC(C)C)cccc2C(=O)N([C@@H](C)CO)C[C@@H]1C	-5%	i
c1cncc(-c2cn(C[C@H]3CC[C@H](Cn4cc(-c5cccnc5)nn4)O3)nn2)c1	-3%	i

Given as labelled records: two of the compounds above
COc1ccc(C2C(C#N)=C(N)Oc3cc4c(cc32)OCO4)cc1 (configuration not stated)
  VACV Venus inh: -27%; Vaccinia mCherry: ?

NC(=S)N/N=C/c1cc([N+](=O)[O-])ccc1Cl
  VACV Venus inh: 2.2µM*; Vaccinia mCherry: ?

Following part.
SMILES	VACV Venus inh	Vaccinia mCherry
N#CCCN1CCN(C(=S)c2ccc(-c3ccc(Cl)c(Cl)c3)o2)CC1	?	/
COC(=O)C1=C(c2cccc(C#N)c2)C[C@@H]2CC[C@H]1N2C(=O)NCc1cccc2ccccc12	-16%	-6%
Cc1ccc(S(=O)(=O)Nc2cccc(-c3ccc4nnc(C)n4n3)c2)s1	-13%	i
COc1ccccc1OC(=O)c1cc2ccccc2oc1=O	5%	-22%
CCc1cc(=O)oc2cc(OCC(=O)NCCCN3CCCC3=O)ccc12	-10%	i
O=C(NC1CCCCC1)N1CCN(CCc2ccccc2)CC1	-10%	-9%
C[N+](C)(CCCCCI)c1ccc(/C=C/c2nc3ccccc3s2)cc1	/	474%[activator]
CC(=O)c1cccc(NCC(=O)Nc2cc(S(=O)(=O)N3CCCCC3)ccc2C)c1	-16%	-20%
CCOC(=O)/C(C#N)=C/N=c1ccc(C)cn1C	-3%	i
CNC(=O)N1CCN(C(=O)NC)CC1	-2%	?
COc1ccccc1OCC(=O)Nc1c2c(nn1-c1ccc(F)cc1)CS(=O)(=O)C2	-1%	-10%
O=C(Nc1cnn(Cc2ccc(Cl)cc2)c1)c1ccc([N+](=O)[O-])cc1	?	?
COc1ccc(OC)c(-n2nnnc2SCC(=O)Nc2nc(C)c(C)s2)c1	-12%	-20%
Cc1ccc2nc(N/C(=N/S(=O)(=O)c3ccc(F)cc3F)c3ccccc3)sc2c1	-6%	i
COc1ccc(N2CCN(C(=O)c3ccc(-c4nc(COc5ccccc5)c(C)o4)cc3)CC2)cc1	-9%	-2%
CCC(O)c1nc2ccccc2n1Cc1cc(C)ccc1C (configuration not stated)	-3%	-12%
CC1CCc2nc3ncn(Cc4ccc(Cl)cc4)c(=O)c3cc2C1 (configuration not stated)	-18%	-13%
C=CCNC(=O)[C@H]1N2C(=O)c3ccccc3C2SC1(C)C (some centres not stated)	-16%	0%
COCCN1Cc2cccc(C(=O)Nc3ccc(C)cc3C)c2C1=O	-3%	-13%
CCCCCc1c(C)nc(N2CCc3ccccc3C2)[nH]c1=O	10%	-6%

Structures above with a CF3 group, in the order listed:
SMILES	VACV Venus inh	Vaccinia mCherry
O=C(NCc1cccc(C(F)(F)F)c1)c1ccc(=O)[nH]c1	-12%	i
CCN(Cc1ccccc1)S(=O)(=O)c1ccc(F)c(C(=O)Nc2cc(C(F)(F)F)ccc2Cl)c1	-8%	i
O=C(Nc1cccc(OC(F)(F)F)c1)C1Cc2c(-c3ccco3)ccnc2O1 (configuration not stated)	-1%	-29%

Next structures follow.
SMILES	VACV Venus inh	Vaccinia mCherry
CCOC(=O)c1cnc(N2CCN(c3ccccc3)CC2)[nH]c1=O	10%	i
CN(c1ccc(OCC(=O)OCc2nnc(-c3ccccc3)o2)cc1)S(=O)(=O)c1ccc(Cl)cc1	-12%	-3%
Cc1ccc(-c2nnc3ccc(SCC(=O)N4CCc5ccccc54)nn23)cc1	-19%	-12%
COc1ccc(C(=O)N2CCN(c3nc4c(C)c(Cl)ccc4s3)CC2)c(OC)c1	-18%	-17%
COc1cccc(C(=O)N2CCC(O)(c3cccnc3)CC2)c1	-18%	i
COc1cccc(CN2CC(C(=O)NCCSc3nnnn3C)CCC2=O)c1 (configuration not stated)	2%	i
Cc1[nH]c2ccccc2c1C(=O)COC(=O)C1CC(O)CN1S(=O)(=O)c1ccc(Cl)cc1 (configuration not stated)	-11%	i
N#C/C(=C/c1ccc(Cl)cc1)c1nc(-c2ccc(Br)cc2)cs1	2%	-8%
O=C(NNC1=NCCCCC1)c1cccc([N+](=O)[O-])c1	-16%	?
C#CCNC(=O)C1=C[C@@H](c2coc3ccccc3c2=O)[C@H](CCCO)[C@@H](OCC)O1	-8%	-2%
O=C(O)c1cc(Oc2ccc(C(F)(F)F)cc2Cl)ccc1[N+](=O)[O-]	-12%	-1%
O=C(Cn1nnc(-c2ccccc2)n1)OC1CCOC1=O (configuration not stated)	-11%	-11%
COc1ccc2c(C)cc(SCC(=O)Nc3c(C)n(C)n(-c4ccccc4)c3=O)nc2c1	-20%	/
Cc1ccc(S(=O)(=O)NCC(=O)N2CCOCCOCCOCC2)cc1	-3%	3%
COCCNC(=O)Cn1ccc2cc(S(=O)(=O)N3CCCCCC3)ccc21	-6%	-6%
CCc1cc(C(=O)OC)c(NC(=O)CC2Nc3cc(C)c(C)cc3NC2=O)s1 (configuration not stated)	4%	-16%
O=C(CSc1nc2ccccc2c(=O)n1-c1ccc(F)cc1)Nc1ccc(Cl)c(S(=O)(=O)N2CCOCC2)c1	-8%	1%
Cc1cccc(NC2CCCCC2NS(=O)(=O)c2ccccc2)c1 (configuration not stated)	-8%[7.34 µM]	-20%[7.34 µM]
O=C(COC(=O)CCSc1ccccc1)NCc1ccccc1Cl	-18%	i
CN(CCc1ccccc1)C(=O)c1ccc(NC(=O)Cc2cccc(NC(=O)C3CCN(C(=O)CCc4ccccc4)CC3)c2)cc1	-30%	-4%
Nc1cc(=O)[nH]c(SCC(=O)Nc2cc([N+](=O)[O-])ccc2Cl)n1	0%	i
NC(Cc1ccc(F)cc1)c1csc(Nc2cnccn2)n1 (configuration not stated)	11µM*	10µM*
Cc1ccc(Cl)cc1N1CCN(C(=O)Cn2ncc3c4ccccc4n(C)c3c2=O)CC1	-14%	-18%

Some of the entries above in another layout:
> C=CCc1c(C)nc2nc(SCC(=O)Nc3ccc(OCC)cc3)nn2c1C
  VACV Venus inh: -6%
  Vaccinia mCherry: -12%
> CCOC(=O)c1c(C)n(C)c2cc(-c3ccc(F)cc3)c(O)cc12
  VACV Venus inh: -15%
  Vaccinia mCherry: -23%
> CC1CN(S(=O)(=O)c2ccc(C(=O)NCCCn3ccnc3)cc2)CC(C)O1 (configuration not stated)
  VACV Venus inh: 3%
  Vaccinia mCherry: i
> FCCCOc1ccc(CN2CCN(c3ccccc3F)CC2)cc1
  VACV Venus inh: 2%
  Vaccinia mCherry: -12%
